Bioassay records deposited in PubChem by SRMLSC.
H5N1 CPE = MDCK cell protection from H5N1 avian flu. 96,000 compounds, 0.07% hits. cytopathic effect, luminescence, 72 h; stronger effect = higher value; no value below 0 was filed and about half of the inactive calls have no number; reference of the scale not given here. inhibition, % at 50 µM. AID 740; in the data active = inhibition above about 25%
Active calls of the source: *; i = inactive.

structure	H5N1 CPE
CCS(=O)(=O)CCSc1nc(C)cc(C)n1	0.2
COc1ccc(C(=O)CSc2nnc(-c3cc4ccccc4cc3O)n2Cc2ccco2)cc1	i
COCCCNC(=O)C(=O)N/N=C/c1ccc(OCC(=O)Nc2cccc(Cl)c2C)c(OC)c1	0.1
Cc1ccccc1/C=C1\OC(=O)c2ccccc21	0.6
CC(NC(=O)CSc1ncccn1)c1ccccc1 (stereo unspecified)	1.2
CCC(C(=O)NCc1ccc(F)cc1)N(Cc1ccco1)C(=O)c1snc(C(N)=O)c1N (stereo unspecified)	i
O=C(CCC(=O)NC1CCCCCCC1)Nc1nnc(C(F)(F)F)s1	1.2
C=CCn1c(=S)[nH]c2ccccc2c1=O	0.3
O=S(=O)(NCC1CCCO1)c1ccc2ccccc2c1 (stereo unspecified)	0.2
COc1ccccc1C(=O)N1C(CC(=O)Nc2cc(Cl)ccc2C)C(=O)NC2CCCCC21 (stereo unspecified)	i
CCSc1nccc(-c2nn(-c3ccc(C)cc3)ccc2=O)n1	1.4
CCCn1nnc(NC(=O)C(c2ccccc2)c2ccccc2)n1	0.7
Cc1ccc(-c2ccc(C(=O)O)[nH]2)cc1	1.3
O=C(NCCc1csc(-c2cccnc2)n1)c1ccc(Br)o1	4.2
CN1CCN(S(=O)(=O)c2ccc(NC(=O)Nc3cccc(Cl)c3)cc2)CC1	i
COCCN(CCOC)c1ncnc2c1cnn2-c1ccc(Cl)cc1	i
COC(=O)[C@@H](NC(=O)NCc1ccco1)C(C)C	0.7
CN1CCN(Cc2nc3ccccc3n2C)CC1	1.2
COc1ccc(CCNC(=O)CC2Oc3ccc(Cl)cc3NC2=O)cc1OC (stereo unspecified)	0.3
Cc1ccsc1/C=N/Nc1ncc(Cl)cc1Cl	2.2
CC(=O)C1=C(C)NC(C)=C(C(C)=O)C1c1cccs1	i
CCN(C(=O)c1cn(C)c(=O)c2cc(OC)c(OC)cc12)c1cc(OC)ccc1OC	i
CCn1c(-c2ccc(N)cc2)nc2ccccc21	0.3
CCCNC(=O)C(C)n1c2ccccc2c2nc(=O)cc(C)n21 (stereo unspecified)	0.1
CCOC(=O)C1=C(CSc2nc3c(cc2C#N)CCC3)OC(N)=C(C#N)C1c1ccccc1 (stereo unspecified)	0.6
Cc1ccc(NC(=O)CC(NCCN2CCOCC2)C(=O)O)cc1Cl (stereo unspecified)	i
COc1ccc(CCNC(=O)C/C(C)=N/NC(=O)c2ccc(N)cc2)cc1OC	i
COc1cccc(NC(=O)CN2C(=O)COc3ccc(Cl)cc32)c1	2.6
O=C(NCCCN1CCOCC1)C(Sc1ccccc1)c1ccccc1 (stereo unspecified)	0.5
CCCn1nc(CC(=O)O)c2ccccc2c1=O	i
CCOc1ccccc1C(=O)N(CN1CCCC1=O)c1cccc(Cl)c1	1.5
COCC(C)NC(=O)C1CC(=O)N(c2ccc(C)cc2)C1 (stereo unspecified)	0.5
CN1CCN(S(=O)C23CC4CC(CC(C4)C2)C3)CC1 (stereo unspecified)	0.9
Cc1cc2cc(CNC(=O)c3ccc(S(=O)(=O)N4CCCCC4)cc3)ccc2[nH]1	0.1
CC1CCN(C(=S)c2ccccc2O)CC1	i
CCOC(=O)C1=C(CSc2nc3ccccc3s2)NC(=O)NC1c1cc(C)ccc1C (stereo unspecified)	i
Cc1nn(-c2ccccc2)c2sc(C(=O)NC3CCCCC3)cc12	i
Cc1ccc(S(=O)(=O)NCCC(=O)NCCN2CCCCCC2)cc1	i
Cc1ccc(C)c(C(=O)CSc2n[nH]c(-c3ccncc3)n2)c1	i
C=CCn1c(SCC(=O)c2ccc(OC)cc2)nnc1C(C)NC(=O)c1cccs1 (stereo unspecified)	1.0
COC(=O)c1nc(-c2ccccc2)n[nH]1	i
CCCCn1c(NC(=O)C2CCCCC2)nc2ccccc21	2.4
COc1ccc(NC(=O)c2ccccn2)cc1	i
CCn1c2ccccc2c2cc(NC(=S)N3CCOCC3)ccc21	i
COc1cc(OC)c(NC2=NCCCCC2)cc1Cl	0.4
Cc1c(C#N)c2ncn(Cc3ccccn3)c(=O)c2n1-c1ccccc1	0.3
COc1ccc(CNC(=O)c2ccccc2[N+](=O)[O-])cc1	i
COc1cccc(S(=O)(=O)NCc2ccc(C(=O)Nc3ccc(C)cc3)cc2)c1	i
CCOC(=O)c1c(NC(=O)Cc2cccs2)sc(C(=O)NC2CCCC2)c1C	1.0
O=C(OCc1nc2ccc(Cl)cc2n1CCO)c1ccc2c(c1)OCO2	i

Carrying on.
structure	H5N1 CPE
CC(C)c1[nH]c(=O)c(C#N)c2c1CSC(C)(C)C2	0.1
CCOc1ccccc1NC(=O)Cn1nnc(C(=O)Nc2ccc(C)cc2)c1N	i
Cc1cc(NC(=O)Cn2nc(-c3ccccc3F)ccc2=O)ccc1-n1cnnn1	0.5
O=C(NCCc1ccc(F)cc1)N1CCOCC1	i
COc1cc(NC(=O)C2CCCN2C(=O)OCc2ccccc2)cc(OC)c1 (stereo unspecified)	i
CCc1ccc(N=c2c([N+](=O)[O-])nn(-c3ccccc3)n2O)cc1	i
COc1ccc(OC)c(Nc2cc(C(=O)NCCCN3CCOCC3)c3ccccc3n2)c1	1.0
CCOC(=O)C1CCCN(c2c(N3CCc4ccccc4C3)c(=O)c2=O)C1 (stereo unspecified)	2.3
COc1ccc(OC)c(C(=O)CSc2nnc(-c3cccnc3)n2C)c1	2.0
Cc1cc(Cl)ccc1NC(=S)NCCC(c1ccccc1)c1ccccc1	i
CNC(=O)c1ccc2nc(NC(C)=O)sc2c1	1.3
CC(C)(CNS(=O)(=O)c1ccc(Cl)cc1)N1CCCCC1	0.3
CCOc1ccc2nc(NC(=O)CSc3ccccc3)sc2c1	0.5
CCOc1ccccc1N1CCN(C(=O)Nc2ccc(Cl)c(Cl)c2)CC1	i
CC(=O)N1CCc2c(sc(NC(=O)c3ccc4c(c3)OCCO4)c2C#N)C1	i
Cc1ccc(-c2noc(CN(C(=O)CCN3C(=O)c4ccccc4C3=O)C(C)C)n2)cc1	1.0
CCN(CC)C(=O)Cn1cnc([N+](=O)[O-])n1	i
CCC(=O)N1CCN(CCN=Cc2c(O)n(C)c(=O)n(C)c2=O)CC1	i
Cc1ccc(C(=O)ON=C2CCN(c3ccc([N+](=O)[O-])cc3)CC2)cc1	i
CCOP(=O)(OCC)C(NC(=O)c1ccccc1Cl)=C(Cl)Cl	0.5
CCN(C(=O)CSc1nnc(NC2CCCCC2)s1)C1CCS(=O)(=O)C1 (stereo unspecified)	i
CCC(Sc1ccccc1C(=O)O)C(=O)O (stereo unspecified)	i
Cc1cc2c(cc1C)N(C(=O)CN1C(=O)c3ccccc3C1=O)C(C)(C)c1ssc(=S)c1-2	2.6
CCN(CC)S(=O)(=O)c1ccc2oc(C(=O)NCc3ccc(F)cc3)c(C)c2c1	3.6
CS(=O)(=O)c1ccc2nc(NC(=O)c3ccco3)sc2c1	i
CCCc1nc(SCC(=O)N2c3ccccc3CC2C)c2c(C)c(C)sc2n1 (stereo unspecified)	i
O=C(NCCC1=CCCCC1)c1ccc2c(=O)n3c(nc2c1)CCCCC3	1.1
CCOC(=O)c1sc(NC(=O)C(CC)Sc2nccn2C)nc1C (stereo unspecified)	0.9
O=C(CSc1nnc(Cn2nnc3ccccc32)o1)N(Cc1ccc(Cl)cc1)c1ccccc1	1.5
CCOC(=O)C1=C(C)n2c(s/c(=C/c3cccc([N+](=O)[O-])c3)c2=O)=NC1c1ccc(O)c(OC)c1 (stereo unspecified)	i
COc1ccc(S(=O)(=O)N(C)CC(=O)N2CCCCC2)cc1Cl	0.8
CCOc1cc(C)ccc1OCc1nnc(SCC(=O)c2cccc([N+](=O)[O-])c2)n1C	3.2
Cc1cc(=O)[nH]c(SCC(=O)NCCOc2ccccc2)n1	0.5
O=C(OCCN=C1NS(=O)(=O)c2ccccc21)c1ccncc1	0.9
O=C(Cc1ccccc1)NC1CCN(S(=O)(=O)c2ccc(C(=O)O)cc2)CC1	0.0
CC1Cc2ccccc2N1C(=O)CSc1nnc(Cc2ccccc2)n1CCc1ccccc1 (stereo unspecified)	i
CN1CCN(c2nc(-c3cccnc3)nc3ccccc23)CC1	1.0
CC(=O)c1c(C(C)=O)c(C)n(NC(=O)c2ccncc2)c1C	0.2
O=C(NCc1ccco1)C1CCN(S(=O)(=O)N2CCOCC2)CC1	1.4
Cc1ccc(Cn2c(SCC(=O)Nc3cc(C)on3)nc3ccccc3c2=O)cc1	0.1
O=c1c2c(-c3cccs3)csc2ncn1-n1cccc1	i
CC1CCCCN1C(=O)CSc1nnc(-c2c[nH]c3ccccc23)o1 (stereo unspecified)	i
Cc1ccc(-n2nc(C(=O)c3ccccc3)n3c(=O)cc(-c4ccccc4)nc23)cc1	i
Cc1cn2c(-c3cccnc3)nnc2s1	8.6
O=C(c1ccccc1)c1cc(-c2ccccn2)c(N2CCOCC2)s1	0.7
CN(/C(=N\S(=O)(=O)c1ccccc1)C(F)(F)F)c1ccccc1	0.1
CCOc1ccc(OCc2cccc(C(=O)N3CCCC3)c2)cc1	0.5
O=c1c(C=Nc2cccc(C(F)(F)F)c2)c[nH]n1-c1cccc(Cl)n1	i
CCOCCCNS(=O)(=O)c1ccc(NC(=O)c2ccccc2)cc1	0.5
CCOP(=O)(c1c(F)c(F)c(F)c(F)c1F)C(O)c1ccccc1 (stereo unspecified)	i

Going on with the list:
structure	H5N1 CPE
COc1ccc(N2CCN(C(=O)c3ccc4c(c3)OCO4)CC2)cc1	i
Cn1c(C(=O)N2CCC(C(N)=O)CC2)cc2c(=O)n(C)c3ccccc3c21	1.0
CCOc1cc2[nH]c(=O)n(CCCCC(=O)NC3CCCCCC3)c(=O)c2cc1OCC	i
O=P(O)(O)Cc1ccccc1OP(=O)(c1ccccc1)c1ccccc1	i
O=C(CCC(=O)NNC(=S)Nc1ccccc1)NCc1ccccc1	1.4
O=C(Nc1cccc(F)c1)N1CCN(C/C=C/c2ccccc2)CC1	0.6
O=C(CCS(=O)(=O)c1cccc2nsnc12)N1CC(=O)N(CCc2ccccc2)C(=O)C1	i
c1ccc(OCc2nc3ccccc3s2)cc1	1.4
CCCCNC(=O)c1c(O)c2cccc3c2n(c1=O)CCC3	i
COc1ccc(C(NC(=O)CNC(C)=O)C(=O)Nc2ccc3c(c2)OCCO3)cc1 (stereo unspecified)	0.7
CCCC(=O)Nc1cccc(NC(=O)CN2CCN(c3ccccc3OC)CC2)c1	0.8
CCOc1ccc(-c2csc(NC(=O)C3CCCO3)n2)cc1 (stereo unspecified)	i
O=C(NCC(c1cccnc1)N1CCOCC1)c1ccco1 (stereo unspecified)	0.7
CN(C)c1ccc(C(=O)Nc2cc(C(F)(F)F)ccc2-n2cncn2)cc1	i
Cc1nn2c(NCCCN3CCOCC3)c3c(nc2c1-c1ccccc1)CCC3	i
COc1ccc(C(=O)Nc2cc(C)on2)cc1	i
Cc1cc(C)c(C)c(OCC(=O)N2CCOCC2)c1	i
CN1C2C=C(N(C(=O)c3ccc(Cl)cc3)c3ccccc3)CC1CC2 (stereo unspecified)	i
O=C1c2oc3ccccc3c(=O)c2C(c2cccnc2)N1Cc1ccco1 (stereo unspecified)	1.3
COc1ccc(C)cc1NC(=O)CN1CCN(c2ccccc2F)CC1	i
CCSc1cc(C2C(C#N)=C(N)Oc3n[nH]c(C)c32)c(C)o1 (stereo unspecified)	i
Cc1ccc(C(=O)COC(=O)C2CC(=O)N(c3nc(-c4ccccc4)cs3)C2)cc1 (stereo unspecified)	i
O=C(Oc1ccc2ccccc2c1Br)N1CCCCCC1	i
CCC1(CC)N([O-])C(C)=C(c2ccccc2)[N+]1=O	0.2
NC(=O)c1c(NC(NC(=O)c2ccco2)C(=O)c2ccc(Cl)cc2)sc2c1CCCC2 (stereo unspecified)	i
COc1ccc(CNn2c(C)nc3ccccc3c2=O)cc1	i
COc1ccc2cc(CN(Cc3ccco3)Cc3nnnn3C3CCCCC3)c(=O)[nH]c2c1	i
CS(C)(=O)=NS(=O)(=O)c1ccc(Cl)cc1	i
CCOC(=O)CCCNC(=O)CCNC(=O)c1ccc(OC(C)C)cc1	i
Cn1c(-c2c(N)n(C3CCCC3)c3nc4ccccc4nc23)nc2ccccc21	5.6
CCCn1nc(C(=O)Nc2ccc(S(=O)(=O)Nc3nccs3)cc2)c2ccccc2c1=O	0.3

Some of the compounds tested; the hit share may differ from the screen's.
